Assay outcomes deposited in PubChem BioAssay by National Center for Advancing Translational Sciences (NCATS).
2A Renilla – Primary qHTS Assay for Foot and Mouth Disease Virus Antivirals against NCGC Sytravon and CBC Compound Libraries: Renilla Luciferase Signal; Potency, µM (highest dose often 57.5 µM), inactives show at the highest dose signal change, negative = less light; 0.32% of 120,000 active; HEK cells with a luciferase reporter of 2A StopGo recoding; active means well fitted falling curve with a large enough effect; inconclusive means small, poorly fitted or top-dose-only effect; inactive means no such curve, though single readings can be large or run the other way; further: nearly all actives have a fitted effect of over 55% in size; overnight with compound
StopGo FLuc – Primary qHTS Assay for Foot and Mouth Disease Virus Antivirals against NCGC Sytravon and CBC Compound Libraries: Firefly Luciferase Signal; HEK cells with a luciferase reporter of 2A StopGo recoding; Potency, µM (highest dose often 57.5 µM), for the others: at the highest dose signal change, negative = less light; 0.23% of 120,000 active; AID 1745856, 2022; active = well fitted falling curve with a large enough effect; inconclusive = small, poorly fitted or top-dose-only effect; inactive = no such curve, though single readings can be large or run the other way; further: nearly all actives have a fitted effect of over 60% in size; overnight with compound
* = called active by the depositor; ? = inconclusive; [ ] = remark or other dose. On the % scale 0 is the no-effect control and ±100 the full control effect; potency means the concentration at half of the fitted maximal effect.

(1) O=C(c1cccs1)N(Cc1ccccn1)C1CC1
(2) CC(=O)NNC(=S)Nc1cccc(C)c1
(3) Cc1ccccc1C(=O)NNC(=S)NC(=O)/C=C/c1ccccc1
(4) Oc1ccc(NCc2ccccc2OCc2ccccc2F)cc1
(5) COc1ccccc1/C=C/c1nc(C#N)c(NCCN(C)C)o1
(6) COc1ccc(NC(=O)COc2coc(CN3CCSCC3)cc2=O)cc1
(7) N#C/C(=C\c1cn(CC(=O)NCc2ccco2)c2ccccc12)C(=O)N1CCCC1
(8) CCN(C(=O)c1cc(-c2ccccc2)c(N2CCOCC2)s1)C1CCS(=O)(=O)C1 (stereo not given)

compound no.,1,2,3,4,5,6,7,8
2A Renilla,6%,15%,0%,3%,-9%,-21%,56%[activator],3%
StopGo FLuc,9%,5%,0%,51%[activator],1%,-9%,0%,-26%

(9) Cc1nnc(SCc2cc(=O)n3c(C)cccc3n2)s1
(10) Cc1ccc2nc(-c3ccc(C)c(NC(=O)CSc4ccc(Cl)cc4)c3)oc2c1
(11) C/C(=C/c1c[n+](Cc2ccc3c(c2)OCO3)c(N)[nH]1)Cn1[nH]c(=O)n(-c2ccccc2)c1=O
(12) COc1ccc(-c2cn3nc(N4CCCC(C(=O)NCc5ccccc5OC)C4)sc3n2)cc1 (stereo not given)
(13) CCC1(c2ccccc2)NC(=O)N(NC(=O)c2nn(C)c(=O)c3ccccc23)C1=O (stereo not given)
(14) COc1cccc(CNC(=O)c2ccc3c(c2)nc2n3CCOC2)c1
(15) Cc1cc(=O)oc2cc(NC(=O)Cc3ccc(Cl)cc3)ccc12
(16) CCc1ccc(C(=O)c2sc(Nc3ccc(OC)cc3)c(C(N)=O)c2N)cc1

compound no.,9,10,11,12,13,14,15,16
2A Renilla,3%,-9%,-7%,-2%,9%,-10%,-11%,5%
StopGo FLuc,40%[activator],96%[activator],1%,71%[activator],22%,-16%,20%,1%

(17) Fc1ccccc1N1CCN(c2ncnc3c2nc2n3CCCC2)CC1
(18) CCc1cccc(NC(=O)CN(C)S(=O)(=O)c2ccc3c(c2)n(C)c(=O)c(=O)n3C)c1
(19) Cc1ccccc1OCc1ccc(-c2nc(C#N)c(N3CCN(C)CC3)o2)o1
(20) CCc1ccc(NC(=O)CN2C(C(=O)OC)=C(c3ccccc3)c3ccccc3S2(=O)=O)cc1
(21) COc1cccc(-n2cc(C(=O)NCc3ccc(C)cc3)c3ccccc3c2=O)c1
(22) O=C(c1ccccc1)c1ccc(OC(=O)c2c(F)cccc2Cl)cc1
(23) CCc1ccc(S(=O)(=O)n2ccnc2)cc1
(24) Cc1cccc(C(C)C)c1NC(=O)c1cnc2ccccc2n1

compound no.,17,18,19,20,21,22,23,24
2A Renilla,?,-3%,10%,16%,31%[activator],27%,-11%,-3%
StopGo FLuc,?,-4%,18%,-15%,-4%,51%[activator],-13%,79%[activator]

(25) COc1cccc2c1ncc1c(-c3ccc(C)cc3)nn(-c3cccc([N+](=O)[O-])c3)c12
(26) CC(=O)n1nc(NCc2c(F)cccc2Cl)nc1NCc1c(F)cccc1Cl
(27) CC1CCN(c2nc3c(c(=O)n(Cc4ccccc4F)c(=O)n3C)n2C)CC1
(28) CCOc1ccc(CN2C(=O)c3ccccc3Sc3ccc(C(=O)NCc4ccco4)cc32)cc1
(29) Cc1nnc(NC(=O)NCC(O)c2cccc(Cl)c2)s1 (stereo not given)
(30) Cc1cc(S(=O)(=O)N2CCOC23CCN(C(=O)c2cccc(F)c2)CC3)ccc1F
(31) O/N=C(/c1cc(F)c(F)c(F)c1)c1ccc(O)cc1O
(32) CSc1ccc(C2SCC(=O)N2c2ccc(Br)cc2)cc1 (stereo not given)

compound no.,25,26,27,28,29,30,31,32
2A Renilla,-22%,74%[activator],-15%,10%,17%,15%,15%,5%
StopGo FLuc,-18%,3%,-15%,-7%,31%[activator],5%,0%,18%

Single records, as listed above. Order of screens: 2A Renilla | StopGo FLuc
Entry for `CSc1ccc(C2SCC(=O)N2c2ccc(Br)cc2)cc1` (stereo not given) → 5% | 18%
Entry for `Cc1nnc(NC(=O)NCC(O)c2cccc(Cl)c2)s1` (stereo not given) → 17% | 31%[activator]

Next records follow.
(33) COc1cc2c(cc1OC)C(COc1ccc3c(C)cc(=O)oc3c1)N(C(=O)c1cccc(C)c1)CC2 (stereo not given)
(34) COC(=O)c1ccc(COC(=O)c2ccc(C)cc2C)cc1
(35) CN(C)S(=O)(=O)N(CC(=O)Nc1ccc(Cl)c(Cl)c1)c1ccccc1
(36) COc1ccc(-c2c(C)c3cc(OC(=O)N(C)C)ccc3oc2=O)cc1
(37) COc1ccc(-c2noc(CSc3nc(N)cc(=O)[nH]3)n2)cc1OC
(38) COc1nc(-c2ccc(C)cc2)ccc1-c1noc(-c2ccccc2Br)n1
(39) COC(CN(C)C(=O)c1cc(Nc2ccc(C)c(C)c2)nc2ccccc12)OC
(40) CC1=C(C(=O)Nc2ccccc2)C(c2ccc(C)cc2)n2ncc(C(=O)Nc3ccccc3)c2N1 (stereo not given)

compound no.,33,34,35,36,37,38,39,40
2A Renilla,-6%,15%,0%,22%,-30%,-10%,0%,2%
StopGo FLuc,-15%,70%[activator],-13%,13%,-17%,14%,0%,84%[activator]

(41) CCOC(=O)c1ccc(NC(=O)c2c(NCc3sccc3C)sc3c2CCC(C)C3)cc1 (stereo not given)
(42) Cc1ccc(CNC(=O)CCCc2nnc3n(C)c(=O)c4sccc4n23)cc1
(43) CCCN1C(=O)C(Cc2nc3ccccc3c(=O)n2-c2ccc(OC)cc2)c2cc(C)ccc21 (stereo not given)
(44) COc1cccc(NC(=O)Nc2ccc3c(c2)N(C)C(=O)c2ccccc2S3)c1
(45) CCC(=O)Nc1ccc(O)c(-c2nc3cc(CC)ccc3o2)c1
(46) CCOC(=O)c1sc(NC(=O)c2nc3ncccn3n2)c(C(=O)OC)c1C
(47) Nc1nccnc1C(=O)Nc1cccc(C#Cc2cccs2)c1
(48) COc1ccccc1CNC(=O)C1CCCN(S(=O)(=O)c2ccc3c(c2)CCCN3C(C)=O)C1 (stereo not given)

compound no.,41,42,43,44,45,46,47,48
2A Renilla,-33%,-7%,-13%,-12%,-11%,-16%,-7%[1.06 µM],38%[activator]
StopGo FLuc,-16%,?,3%,1%,48%[activator],-2%,?,1%

(49) CC(CNC(=O)c1ccc(C#N)cc1)N1CCCC1 (stereo not given)
(50) O=C(Nc1c2c(nn1-c1ccc(Cl)cc1)CS(=O)(=O)C2)c1ccccc1F
(51) CCn1cc(C(=O)NCCc2ccc(OC)c(OC)c2)c(=O)c2cc(S(=O)(=O)N3CCC(C)CC3)ccc21
(52) Cc1ccc(/C=N/Nc2ccc(Cl)c(Cl)c2)c(C)c1
(53) O=C(O)CSc1cc(Cl)ccc1Cl
(54) CCOC(=O)c1ccc(-c2ccc(/C=C(/C#N)C(=O)N3CCOCC3)o2)cc1
(55) COCc1cc(C)nc2c1C(=O)NC(c1ccc(F)cc1)N2Cc1ccccc1 (stereo not given)
(56) CCc1ccccc1N(C)C(=O)c1sc2nc3n(c(=O)c2c1C)CCCCC3

compound no.,49,50,51,52,53,54,55,56
2A Renilla,-2%,3%,-4%,11%,9%,31%[activator],-5%,-10%
StopGo FLuc,-10%,-8%,?,51%[activator],4%,22%,-12%,-8%

(57) O=S(=O)(c1ccccc1)c1nc(-c2cccs2)oc1SCc1ccccc1Cl
(58) O=C(Nc1oc2ccccc2c(=O)c1-c1ccc(Cl)cc1)c1cccs1
(59) CCOc1ccc(CNC(=O)CCC(=O)N2CC(C)Sc3ccccc32)cc1 (stereo not given)
(60) O=C(CSc1nc2ccccc2c(=O)n1CCc1cccs1)N1CCCCC1
(61) COC(=O)NCc1ccc(OC)c(OC)c1
(62) Cc1ccc(Cn2cccc(C(=O)Nc3cc(C)on3)c2=O)cc1
(63) COc1cccc2cc(C(=O)NCCc3c(C)[nH]c4ccc(Br)cc34)c(=O)oc12
(64) CCSC1=NC2(CCN(C(=O)NC3CCCCC3)CC2)N=C1c1ccc(C)cc1

compound no.,57,58,59,60,61,62,63,64
2A Renilla,99%[activator],48%[activator],2%,10%,10%,-5%,-12%,-12%
StopGo FLuc,-10%,62%[activator],-3%,18%,16%,3%,0%,-7%

(65) O=C(Cc1n[nH]c(=O)c2ccccc12)NCCOc1cccc(Cl)c1
(66) Nc1c(C(=O)Nc2c(Cl)cccc2Cl)sc2nc(-c3cccnc3)ccc12
(67) Cc1ccc(C(=O)Nc2c(C)ccc3nsnc23)c(Cl)c1
(68) O=C(Nc1ccccc1F)c1nc(SCc2ccccc2F)ncc1Cl
(69) Nc1cccc2c1CN(C1CCC(=O)NC1=O)C2=O (stereo not given)
(70) CC(C)c1noc(-c2ccccc2OCC(=O)Nc2ccccc2[N+](=O)[O-])n1
(71) Cc1nc(N2CCN(c3ccccc3)CC2)nc2c1C(=O)CCC2
(72) CC(=O)Nc1ccn(C2COC(COC(=O)c3ccccc3)O2)c(=O)n1 (stereo not given)

compound no.,65,66,67,68,69,70,71,72
2A Renilla,5%,19%,4%,2%,-17%,21%,?,-14%
StopGo FLuc,20%,166%[activator],41%[activator],-18%,-17%,-11%,?,-10%[11.5 µM]

(73) COc1cccc2c1cc1c(=O)n(CC(=O)N3CCN(c4cccc(C)c4)C(C)C3)nc(C)n12 (stereo not given)
(74) CCC(C)c1ccc(NC(=O)CSc2nnc(-c3cc(-c4ccc(F)cc4)n[nH]3)n2N)cc1 (stereo not given)
(75) Cc1ccc(-c2nnc(SCc3ccccc3)o2)cc1
(76) O=C(CCS(=O)(=O)c1ccccc1)N(Cc1cccnc1)c1nc2c(Cl)cccc2s1
(77) CCc1ccc2nc(C)cc(C(=O)OCC(=O)c3cccc([N+](=O)[O-])c3)c2c1
(78) COc1cc(SC)ccc1C(=O)N1CC(C)CC(C)C1 (stereo not given)
(79) CCc1noc(-c2ccc(N(C)Cc3ccc(OC)cc3)c([N+](=O)[O-])c2)n1
(80) Cc1cccc(C(=O)Nc2c(NCC3CCCCC3)c3ccccc3oc2=O)c1

compound no.,73,74,75,76,77,78,79,80
2A Renilla,12%,0%,-16%,-6%,-14%,?,?,-9%
StopGo FLuc,15%,0%,15%,-14%,18%,?,-20%,-6%

(81) CC(Nc1nccc(C(F)(F)F)n1)c1cccc([N+](=O)[O-])c1 (stereo not given)
(82) O=C(Nc1ccc(N2CCOCC2)cc1)c1ccc2c(c1)S(=O)(=O)c1ccccc1C2=O
(83) CC1CCc2onc(C(=O)N3CCN(c4ccccc4)CC3)c2C1 (stereo not given)
(84) Cc1nn2c(C(F)F)cc(-c3ccccc3)nc2c1Br
(85) O=S(=O)(NCC1CC1)c1ccc2ccccc2c1
(86) CN(CCOC(=O)c1cc(Cl)ccc1Cl)C(C)(C)C

compound no.,81,82,83,84,85,86
2A Renilla,-28%,21%,5%,-17%,330%[activator],-4%
StopGo FLuc,-13%,0%,19%,-3%,27%,2%

In the list so far, 13 contain fluorine.
(4) Oc1ccc(NCc2ccccc2OCc2ccccc2F)cc1
(17) Fc1ccccc1N1CCN(c2ncnc3c2nc2n3CCCC2)CC1
(22) O=C(c1ccccc1)c1ccc(OC(=O)c2c(F)cccc2Cl)cc1
(26) CC(=O)n1nc(NCc2c(F)cccc2Cl)nc1NCc1c(F)cccc1Cl
(27) CC1CCN(c2nc3c(c(=O)n(Cc4ccccc4F)c(=O)n3C)n2C)CC1
(30) Cc1cc(S(=O)(=O)N2CCOC23CCN(C(=O)c2cccc(F)c2)CC3)ccc1F
(31) O/N=C(/c1cc(F)c(F)c(F)c1)c1ccc(O)cc1O
(50) O=C(Nc1c2c(nn1-c1ccc(Cl)cc1)CS(=O)(=O)C2)c1ccccc1F
(55) COCc1cc(C)nc2c1C(=O)NC(c1ccc(F)cc1)N2Cc1ccccc1 (stereo not given)
(68) O=C(Nc1ccccc1F)c1nc(SCc2ccccc2F)ncc1Cl

compound no.,4,17,22,26,27,30,31,50,55,68
2A Renilla,3%,?,27%,74%[activator],-15%,15%,15%,3%,-5%,2%
StopGo FLuc,51%[activator],?,51%[activator],3%,-15%,5%,0%,-8%,-12%,-18%

(74) CCC(C)c1ccc(NC(=O)CSc2nnc(-c3cc(-c4ccc(F)cc4)n[nH]3)n2N)cc1 (stereo not given)
(81) CC(Nc1nccc(C(F)(F)F)n1)c1cccc([N+](=O)[O-])c1 (stereo not given)
(84) Cc1nn2c(C(F)F)cc(-c3ccccc3)nc2c1Br

compound no.,74,81,84
2A Renilla,0%,-28%,-17%
StopGo FLuc,0%,-13%,-3%

A portion of the library; the hit share may differ from the screen's.
